High-throughput results as filed in PubChem.
RE007 growth inh: less growth of the S. pombe RE007 Vpr strain; S. pombe RE007 Vpr strain, BacTiter-Glo ATP luminescence, 24 h; control for the full effect not named in the record; Potency, µM (titrated, usually from 92.2 µM), inactives show top-dose activity change, negative = less growth; 360,000 tested, 0.21% active; active = well fitted falling curve with a large enough effect; inconclusive = small, poorly fitted or top-dose-only effect; inactive = no such curve, though single readings can be large or run the other way;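 also: % is scaled to controls: 0 for no effect and ±100 for the full control effect; nearly all actives have a fitted effect of over 50% in size; the assay follows cell death caused by Vpr and the record does not say whether a fall means rescue or toxicity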
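Fission yeast RE007 carrying one integrated HIV-1 vpr copy, seeded at OD 0.01 in PMG+AL medium with 23 nL pinned compound. Grown 24 h at 30 degrees; viability read by BacTiter-Glo luminescence after 5 min.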
SARS PLP yeast: inhibitors of SARS-CoV papain-like protease in yeast. S. cerevisiae expressing SARS-CoV PLpro, growth rescue; control for the full effect not named in the record. Potency, µM (titrated, usually from 32.9 µM), for inactives: at the top dose activity, positive = growth rescue. 330,000 tested, 0.19% active; active means well fitted rising curve with a large enough effect; inconclusive means small, poorly fitted or top-dose-only effect; inactive means no such curve, though single readings can be large or run the other way; also: 0% is about no effect; nearly all actives have a fitted effect of over 55% in size; growth read by luminescence after 48 h
2A StopGo: FMDV 2A StopGo reporter, luciferase signal; Potency, µM (series often up to 57.9 µM), for inactives: at the highest dose signal change, negative = less light; 410,000 tested, 1.2% active; human cells with a luciferase reporter of 2A StopGo recoding; control for the full effect not named in the record; active = well fitted falling curve with a large enough effect; inconclusive = small, poorly fitted or top-dose-only effect; inactive = no such curve, though single readings can be large or run the other way; tested in HEK293T cells; also: % is scaled to controls: 0 for no effect and ±100 for the full control effect; nearly all actives have a fitted effect of over 45% in size; luciferase light after 4 h
Starred values were filed as active, the others as inactive; u = inconclusive; [ ] = dose if it differs, or a comment. Potency is read from the fitted curve at half-maximal effect. Some of the compounds tested; count on the stated rates, not on these rows.

SMILES | RE007 growth inh | SARS PLP yeast | 2A StopGo
C[C@@H]1CN([C@@H](C)CO)C(=O)c2cccc(NC(=O)C3CCOCC3)c2O[C@H]1CN(C)S(=O)(=O)c1ccc(Cl)cc1 | 3.7% | -4.7% | -20.7%
COc1ccc(C(=O)N2CCC2)cc1S(=O)(=O)NCc1ccc(Cl)cc1 | 7.7% | -5.4% | 64.4%[activator]
Cn1c(N)c(C(=O)CN2CCc3ccccc3C2)c(=O)n(C)c1=O | 15.4% | 2.7% | 6.0%
CCN(CC)CCCC(C)NC(=O)c1ccc(C(F)(F)F)cc1 (stereo not drawn) | -6.1% | 0.1% | -14.4%
CCCN(C(=O)CSc1ncnc2sccc12)c1c(N)n(Cc2ccccc2)c(=O)[nH]c1=O | -2.8% | -1.1% | -8.4%
CCOP(=O)(OCC)C(NC(=O)/C=C/c1ccc(OC)cc1)c1ccccc1 (stereo not drawn) | 14.1% | 1.6% | 5.0%
O=C1CCN(C(=O)C(Cl)Cl)N1 | -7.9% | 2.2% | -8.6%
CC(Sc1nnc(C2CC2)n1C)C(=O)Nc1ccc2c(c1)CCC2 (stereo not drawn) | 12.8% | -12.5% | -13.4%
Cc1ccc(S(=O)(=O)N(C)c2ccc3c(ncn3C)c2[N+](=O)[O-])cc1 | -8.9% | 1.3% | -15.2%
Cc1ccc(N2CC(C(=O)OCC(=O)Nc3ccc(Cl)cc3)CC2=O)cc1 (stereo not drawn) | -11.9% | -14.2% | -21.7%
Cc1ccc(NC(=O)c2ncn(CC(=O)NCc3ccc4c(c3)OCO4)n2)cc1C | 17.1% | 5.6% | 54.4%[activator]
Cc1n[nH]c(C)c1NC(=O)c1cc([N+](=O)[O-])ccc1Cl | 9.3% | 1.1% | -1.5%
CCOC(=O)/C(=N\Nc1ccccc1Cl)N1CCN(c2ccccc2OC)CC1 | 32.6% | -1.8% | -9.4%
CC(=O)OCC(=O)Nc1cc(S(=O)(=O)N2CCCCCC2)ccc1Cl | -6.1% | -6.8% | 6.9%
C=CC[C@@H](CC(=O)OC(C)(C)C)C(=O)OC[C@@H]1CCCN1C(=O)[C@@H](CC=C)CC(=O)N[C@@H](CO)Cc1ccccc1 | -1.9% | -0.7% | u
Cc1ccccc1NC(=S)N1CCCN(Cc2ccc(F)cc2)C1 | 12.5% | 5.6% | -3.3%
Cc1cc(NC(=O)C(C)SCC(=O)OCc2ccc(Cl)cc2Cl)no1 (stereo not drawn) | 7.8% | 2.2% | -9.7%
Cc1cc(C(=O)CSc2nnc(C3CC3)n2C2CC2)c(C)n1C(C)C | -10.7% | -1.0% | 9.4%
C[C@H](CO)N1C[C@H](C)[C@@H](CN(C)C)Oc2c(NC(=O)CCC(F)(F)F)cccc2C1=O | 1.8% | 5.1% | 12.7%
CCOc1ccc(S(=O)(=O)Nc2ccccc2C(=O)N(C)C2CCN(C)CC2)cc1 | -14.7% | 0.8% | -5.7%
NS(=O)(=O)c1cccc(NC(=O)COC(=O)Cn2cc(C(F)(F)F)ccc2=O)c1 | 22.1% | -1.2% | -2.0%
Cc1c(C=NNC(=O)c2ccc(Br)cc2)c2ccccn2c1C(=O)c1ccncc1 | 1.5% | -6.0% | -4.7%
C#CCCc1cocc1/C=[N+](\[O-])c1ccc(C(=O)OCC)cc1 | -1.1% | -24.5% | 16.0%
CC(=O)CCC1CC(c2ccc(Cl)cc2)=NO1 (stereo not drawn) | -12.4% | 2.0% | 27.7%
O=C(C[C@@H]1C/C=C\CCCC(=O)OC[C@@H]2CCCN2C1=O)N[C@@H](CO)Cc1ccccc1 | -4.2% | -4.1% | -21.5%

Complete entries, looked up by structure:
Entry for CCOc1ccc(S(=O)(=O)Nc2ccccc2C(=O)N(C)C2CCN(C)CC2)cc1 : RE007 growth inh: -14.7%; SARS PLP yeast: 0.8%; 2A StopGo: -5.7%
Entry for Cc1ccc(NC(=O)c2ncn(CC(=O)NCc3ccc4c(c3)OCO4)n2)cc1C : RE007 growth inh: 17.1%; SARS PLP yeast: 5.6%; 2A StopGo: 54.4%[activator]
Entry for O=C(C[C@@H]1C/C=C\CCCC(=O)OC[C@@H]2CCCN2C1=O)N[C@@H](CO)Cc1ccccc1 : RE007 growth inh: -4.2%; SARS PLP yeast: -4.1%; 2A StopGo: -21.5%

Next section:
SMILES | RE007 growth inh | SARS PLP yeast | 2A StopGo
CC(=O)c1c(C)[n+]([O-])c2ccc3c(non3O)c12 | -8.7% | 0.6% | -21.7%
C/C(=C/c1ccccc1)C(=O)N1CC(C)OC(C)C1 (stereo not drawn) | -15.7% | 0.1% | -1.5%
COC(=O)[C@]1(Cc2ccccc2)N[C@H](CN(C)C(=O)Nc2ccc(C(F)(F)F)cc2)[C@@H]2C(=O)N(C)C(=O)[C@@H]21 | 4.8% | -0.5% | -18.4%
COc1ccc(Cl)cc1NC(=S)NC(=O)c1ccco1 | -12.9% | 9.6% | 23.1%
CC1CCC2(CC1)NC(=O)N(CC(=O)NCCc1ccc(F)cc1)C2=O (stereo not drawn) | -12.0% | 5.9% | -12.4%
Cc1ccc(S(=O)(=O)N2CCOCC2)cc1C(=O)OCC(=O)NCCc1ccc(F)cc1 | -9.4% | u | -29.0%
COC(=O)C1=C(c2c(C)noc2C)C[C@@H]2CC[C@H]1N2C(=O)N1CCc2cc(OC)c(OC)cc2C1 | -0.4% | 1.3% | -2.3%
C=CCC[C@@H](Cc1ccc(F)cc1)C(=O)OC[C@H](Cc1c[nH]c2ccccc12)NC(=O)[C@@H](CC=C)CC(=O)NCCO | 6.1% | -0.3% | u
O=C(OCC(=O)N1CCCCC1)c1ccc2c(c1)C(=O)N(Cc1ccco1)C2=O | 9.8% | 3.1% | -12.9%
COC(=O)[C@@]1(C)[C@H]2C(=O)N(C)C(=O)[C@H]2[C@H]2CN=C(SCC(=O)c3ccccc3)N21 | -11.6% | 29.7% | -16.7%
O=C(CN1CCN(Cc2cccc(Cl)c2)C1=O)NCc1cccs1 | 4.3% | 3.0% | -10.8%
C[C@H](NC(=O)c1[nH]cnc1C(=O)Nc1nccs1)c1ccccc1 | 7.3% | 1.5% | 5.3%
COC(=O)C1=C(c2ccc(F)cc2OCc2ccccc2)C[C@@H]2CC[C@H]1N2C(=O)N1CCC(C)CC1 | 28.3% | -2.6% | -28.7%
CN1C(=O)[C@H]2[C@@H](/C=C/c3ccccc3)N3C(=O)CN(Cc4ccccn4)C(=O)[C@@]3(Cc3ccccc3)[C@H]2C1=O | -14.0% | -6.1% | -6.8%
CCOC(=O)[C@@H]1[C@H]2COc3cc(OC)ccc3[C@H]2N2C(=O)N(c3ccc(Br)cc3)C(=O)[C@]12C | 1.2% | 1.7% | -7.8%
Cc1ccc(S(=O)(=O)/N=C(/Nc2ccc(O)c(C(=O)O)c2)c2ccccc2)cc1 | 3.1% | -3.3% | -22.6%
CCOCCCNC(C(=O)Nc1ccc(OC)c(Cl)c1)c1ccccc1 (stereo not drawn) | -8.3% | 2.4% | 13.4%
Cc1ccc(S(=O)(=O)CCC(=O)Nc2cccc([N+](=O)[O-])c2)cc1 | 13.9% | 0.1% | -4.8%
CCCCC[C@@H]1C=C(C(=O)O)[C@H](c2ccc(Cl)c(Cl)c2)N1S(=O)(=O)c1ccc(C)cc1 | 0.9% | 3.7% | -29.8%
CSc1nsc(N/N=C/c2ccc3c(c2)OCO3)c1C#N | 10.1% | 0.3% | 70.3%[activator]
O=C(CN1CCN(S(=O)(=O)c2cccc(Br)c2)CC1)N1CCCCC1 | -11.0% | 2.7% | -2.5%
Cc1ccc(C)c(C(C)NC(=O)C2CC=CCC2C(=O)O)c1 (stereo not drawn) | 3.4% | 3.2% | -4.1%
COc1cc(/C=C/C(=O)Oc2coc(CSc3ncccn3)cc2=O)cc(OC)c1OC | 5.2% | -0.7% | -5.0%
CC(=O)c1cccc(S(=O)(=O)NCCCN2CCOCC2)c1 | 42.4% | 9.8% | -0.7%
CC(=O)C[C@H](O)CC(=O)[C@H]1OC(=O)CCCCCCCCc2ccccc21 | 0.5% | 1.6% | -2.1%

Reformatted with each value named: three of the compounds above.
COC(=O)[C@]1(Cc2ccccc2)N[C@H](CN(C)C(=O)Nc2ccc(C(F)(F)F)cc2)[C@@H]2C(=O)N(C)C(=O)[C@@H]21
  RE007 growth inh = 4.8%	SARS PLP yeast = -0.5%	2A StopGo = -18.4%

COc1ccc(Cl)cc1NC(=S)NC(=O)c1ccco1
  RE007 growth inh = -12.9%	SARS PLP yeast = 9.6%	2A StopGo = 23.1%

CC1CCC2(CC1)NC(=O)N(CC(=O)NCCc1ccc(F)cc1)C2=O (stereo not drawn)
  RE007 growth inh = -12.0%	SARS PLP yeast = 5.9%	2A StopGo = -12.4%

Next part
SMILES | RE007 growth inh | SARS PLP yeast | 2A StopGo
CCCCNC(=O)CSc1ccc(S(=O)(=O)N2CCOCC2)cn1 | -4.9% | -15.2% | -6.8%
CSc1ccc(S(=O)(=O)NCC(=O)OCC(=O)N2CCC(C)CC2)cc1[N+](=O)[O-] | -0.2% | -4.2% | -13.8%
COCc1cccc(C2=CC(=O)C[C@H](c3ccc(OC)cc3)C2)c1 | -4.1% | -3.0% | 3.9%
COc1ccc(NC(=O)COc2ccc(-c3ccccc3)cc2)cc1 | 4.1% | -8.2% | -22.0%
COCC(=O)Nc1ccc(N2CCCC2)c(S(=O)(=O)Nc2ccccc2OC)c1 | -3.6% | 0.5% | 53.6%[activator]
Cc1ccccc1C(=O)N1CCC(C(=O)Nc2ccc(C)c(S(=O)(=O)N3CCCCC3)c2)CC1 | -4.8% | -3.6% | u
CC(C)(C)NC(=O)C[C@H]1C[C@H](C(=O)N2CCCCC2)[C@@]2(C)c3[nH]c4ccc(Cl)cc4c3CCN2C1=O | 0.6% | 9.7% | 0.0%
CC(=O)Nc1cc(C(=O)CSc2nnc(C3CC3)n2C2CC2)ccc1O | 6.4% | 3.9% | -4.4%
COc1ccccc1NS(=O)(=O)c1ccc(C(=O)NCCCN2CCCC2=O)cc1 | -21.6% | 3.4% | -3.3%
COc1ccc(CNC(=O)CC2C[C@H](C(=O)N3CCCCC3)[C@@]3(C)c4[nH]c5ccccc5c4CCN3C2=O)cc1OC (stereo partly drawn) | -0.7% | 17.9% | -10.0%
COc1ccccc1C(=O)NC(=O)COC(=O)Cc1ccc(F)cc1 | 2.0% | -3.7% | -9.5%
CCN(C(=O)CSc1nnc(SC(C)C)s1)C1CCS(=O)(=O)C1 (stereo not drawn) | 4.9% | -7.8% | -6.9%
O=C(C[C@@H]1C/C=C\C[C@H](NC(=O)OCC2c3ccccc3-c3ccccc32)C(=O)OC[C@@H]2CCCN2C1=O)NCCO | 1.0% | -3.6% | -5.8%
C[C@@H]1CN([C@@H](C)CO)C(=O)c2cc(NC(=O)C3CC3)ccc2O[C@H]1CN(C)C | 10.0% | 2.4% | 0.0%
COc1ccc(CNC(=O)[C@]2(C)CCC[C@@]3(C)C4CC[C@@]5(C)C[C@]4(CCC32)CC5=O)cc1 (stereo partly drawn) | -16.4% | -18.3% | u
O=C(/C=C/c1ccc(Cl)cc1Cl)OCC(=O)N1CCCC1 | -24.0% | -1.0% | 25.3%
COc1ccc([C@H]2Cc3cccc(O)c3C(=O)O2)cc1O | -5.6% | 2.8% | 20.9%
Cc1nc2ccc(NS(=O)(=O)c3ccc(F)c(F)c3F)cc2s1 | 2.2% | -9.4% | -1.0%
Cc1ccc(S(=O)(=O)N2[C@@H](c3ccc(F)cc3)C(C(=O)O)=CC[C@H]2c2cccc(Cl)c2)cc1 | 12.6% | 7.1% | -6.8%
NC(=O)C(NC(=O)OCc1ccccc1)c1ccccc1 (stereo not drawn) | 0.4% | -10.8% | 1.6%
COc1ccc(NC(=O)COC(=O)CCc2ccc(S(=O)(=O)N3CCOCC3)cc2)cc1OC | 5.5% | 3.3% | -1.8%
C[C@@H](NC(=O)c1nc[nH]c1C(=O)N1CCN(c2ccccc2)CC1)c1ccccc1 | -13.8% | -2.9% | -14.0%

At a glance, 4 of the compounds above.
SMILES | RE007 growth inh | SARS PLP yeast | 2A StopGo
Cc1ccc(S(=O)(=O)N2[C@@H](c3ccc(F)cc3)C(C(=O)O)=CC[C@H]2c2cccc(Cl)c2)cc1 | 12.6% | 7.1% | -6.8%
NC(=O)C(NC(=O)OCc1ccccc1)c1ccccc1 (stereo not drawn) | 0.4% | -10.8% | 1.6%
COc1ccc(NC(=O)COC(=O)CCc2ccc(S(=O)(=O)N3CCOCC3)cc2)cc1OC | 5.5% | 3.3% | -1.8%
C[C@@H](NC(=O)c1nc[nH]c1C(=O)N1CCN(c2ccccc2)CC1)c1ccccc1 | -13.8% | -2.9% | -14.0%
